# Source: PubChem BioAssay
# Vaccinia inh: blocks a specific stage of Vaccinia orthopoxvirus infection, primary screen, cell-based, single point; Vaccinia-infected cells, mCherry/Venus stage reporter fluorescence; active compounds read low; some inactives read as strong as hits; activity change (mCherry), % (test concentration not listed); 89,000 tested, 0.01% active; AID 1053133, 2014;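 active = mCherry past -33% and 40 or more points under the early reporter, replicates agreeing; inconclusive = past -33% without that gap or agreement; tested in A549 cells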;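 also: scaled between vehicle wells and reference inhibitor wells; 23 nL library stock went into each well; one replicate is shown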
# Vaccinia inh Venus: further read-out of Vaccinia inh, marked with its call; activity change (Venus), %; measured here: Venus reporter, other viral stage;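 negative = less Venus signal; first of two replicates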
# * marks the source's active call; other numbers are inactive results; ? = inconclusive; nt = no result given; & = joins results of further samples. Only part of the results is shown; count on the stated rates, not on these rows.
SMILES,Vaccinia inh,Vaccinia inh Venus
O=C(CN1CCOCC1)N[C@H]1CC[C@H](CCn2cc(C3CCCC3)nn2)O[C@H]1CO,2.9,-1.9
C[C@@H]1CN([C@@H](C)CO)S(=O)(=O)c2ccc(C3=CCCCC3)cc2O[C@H]1CN(C)Cc1ccccc1F,?,nt
Cc1noc(C)c1NC(=O)Nc1ccc2c(c1)C(=O)N([C@@H](C)CO)C[C@@H](C)[C@H](CN(C)S(=O)(=O)c1ccc(F)cc1)OCCCC[C@@H](C)O2,16.3,9.6
Cc1ccc(S(=O)(=O)N(C)C[C@@H]2Oc3ccc(NC(=O)Nc4c(C)noc4C)cc3CC(=O)N([C@H](C)CO)C[C@@H]2C)cc1,20.1,3.6
COc1ccccc1S(=O)(=O)N(C)C[C@H]1Oc2cc(/C=C/c3ccccc3)ccc2S(=O)(=O)N([C@H](C)CO)C[C@H]1C,-22.9,-21.1
C[C@H](CO)N1C[C@H](C)[C@@H](CN(C)C(=O)Nc2ccc(F)cc2)Oc2ccc(NS(C)(=O)=O)cc2CC1=O,20.3,7.2
CCC(=O)N(C)C[C@@H]1Oc2ncc(-c3ccc(C#N)cc3)cc2C(=O)N([C@H](C)CO)C[C@H]1C,9.0,0.7
C/C=C/c1cnc2c(c1)C(=O)N([C@H](C)CO)C[C@@H](C)[C@H](CN(C)C(=O)c1cnccn1)O2,11.7,8.2
COc1ccccc1NC(=O)N[C@H]1CC[C@H](CC(=O)N2CCC(Cc3ccccc3)CC2)O[C@H]1CO,-19.6,-10.8
O=C(C1CCCCC1)N1C[C@@H]2O[C@H](CNS(=O)(=O)c3ccccc3F)CC[C@@H]21,11.5,22.8
COc1ccc(-c2ccc3c(c2)[C@H]2[C@H](CCN2C(=O)C2CCCC2)[C@H](CO)N3C)cc1,?,nt
CNC[C@H]1Oc2c(NC(=O)Nc3cccc4ccccc34)cccc2C(=O)N([C@H](C)CO)C[C@@H]1C,-9.3,20.1
CN(C)CC(=O)Nc1ccc2c(c1)[C@H]1C[C@@H](CC(=O)NCc3cccc(F)c3)O[C@@H](CO)[C@H]1O2,5.5,2.8
CN(C)C(=O)c1cccc(-c2ccccc2[C@@H]2[C@@H](CO)N(C(=O)C3CCCCC3)[C@H]2C#N)c1,-7.8,-8.3
C[C@@H]1CCCCO[C@H](CN(C)Cc2ccc(Cl)c(Cl)c2)[C@@H](C)CN([C@H](C)CO)C(=O)c2cc(NS(=O)(=O)c3ccc(F)cc3)ccc2O1,-27.4,-14.9
C[C@H](O)C#Cc1ccc([C@@H]2[C@@H](CO)N3CCCCN(C(=O)Nc4ccccc4)C[C@@H]23)cc1,2.2,-8.8
CCC(=O)N1CC2(CCN(C(=O)Nc3c(C)noc3C)CC2)c2c([nH]c3cc(OC)ccc23)[C@@H]1CO,7.0,0.6
CCNC(=O)Nc1ccc2c(c1)C(=O)N(C)[C@H]1CC[C@H](CC(=O)Nc3ccccc3)O[C@@H]1CO2,11.0,5.3
CO[C@H]1CN(C)C(=O)c2cc(NC(=O)c3ccccc3F)ccc2OC[C@@H](C)N(CC2CC2)C[C@@H]1C,-4.8,0.2
COc1ccc2c3c(n(C)c2c1)[C@@H](CO)N(S(C)(=O)=O)CC31CCN(C(=O)C2CC2)CC1,11.2,3.2
CO[C@H]1CN(C)C(=O)c2ccc(NC(=O)c3nc4ccccc4s3)cc2OC[C@H](C)N(Cc2ccncc2)C[C@H]1C,-18.2,-14.4
C[C@@H]1CN([C@H](C)CO)C(=O)c2cc(/C=C/c3ccccc3)cnc2O[C@@H]1CN(C)C(=O)C1CC1,-6.0,-2.7
C[C@@H]1CN([C@H](C)CO)C(=O)c2cc(NC(=O)Cc3ccccc3)ccc2O[C@H]1CN(C)Cc1ccccc1,8.2,4.8
O=C(C1CCCCC1)N1C[C@@H]2[C@H](c3ccccc31)[C@H](CO)N2C(=O)c1ccccc1F,3.1,5.3
CCC(=O)N1CCCCN2[C@@H](CO)[C@H](c3ccc(-c4ccc(F)cc4)cc3)[C@@H]2C1,-0.9,-20.7
O=C(N[C@H]1CC[C@@H](CCn2cc(C3(O)CCCC3)nn2)O[C@@H]1CO)C1CCC1,-2.1,-4.4
C[C@@H]1CN([C@@H](C)CO)C(=O)c2cc(-c3ccncc3)cnc2O[C@H]1CN(C)C(=O)NC1CCCC1,3.6,2.7
CO[C@H]1CN(C)C(=O)c2cc(NC(=O)C3CC3)ccc2OC[C@H](C)N(C(C)=O)C[C@@H]1C,8.5,1.6
COCC(=O)N(C)C[C@@H]1Oc2ncc(C#Cc3ccncc3)cc2C(=O)N([C@@H](C)CO)C[C@H]1C,9.8,2.9
CN1CCN(C(=O)C[C@@H]2CC[C@H]3[C@@H](COc4ccc(NC(=O)C5CC5)cc4C(=O)N3C)O2)CC1,9.8,3.8
C[C@@H]1CCCCO[C@H](CN(C)S(=O)(=O)c2ccc(Cl)cc2)[C@@H](C)CN([C@H](C)CO)C(=O)c2cc(N(C)C)ccc2O1,18.0,15.2
O=C(Cc1cccnc1)N1CCCCN2[C@@H](CO)[C@H](c3ccc(C#CC4CCCC4)cc3)[C@@H]2C1,?,nt
C/C=C/c1cnc2c(c1)C(=O)N([C@H](C)CO)C[C@@H](C)[C@H](CN(C)C(=O)Cc1cccnc1)O2,9.6,4.2
C[C@H](CO)N1C[C@H](C)[C@@H](CN(C)S(=O)(=O)c2ccc(Cl)cc2)Oc2ccc(NS(=O)(=O)c3cccs3)cc2C1=O,3.4,4.1
C[C@H](CO)N1C[C@H](C)[C@@H](CN(C)C(=O)NC2CCCCC2)OCCCC[C@H](C)Oc2ccc(NC(=O)Nc3ccc(C(F)(F)F)cc3)cc2C1=O,-1.3,0.0
CO[C@@H]1CN(C)C(=O)c2cc(NS(C)(=O)=O)ccc2OC[C@H](C)N(CC2CC2)C[C@H]1C,8.2,9.5
COc1ccc(C#Cc2ccc3c(c2)[C@H]2[C@H](CCN2C(=O)C2CCCCC2)[C@@H](CO)N3)cc1,-2.0,0.6
C[C@@H]1CN([C@H](C)CO)C(=O)c2cccc(NS(=O)(=O)c3cccs3)c2O[C@H]1CN(C)S(=O)(=O)c1ccc(Cl)cc1,15.6,9.6
C[C@@H]1CN([C@@H](C)CO)S(=O)(=O)c2ccc(-c3ccccc3)cc2O[C@@H]1CN(C)C(=O)Cc1ccccc1,?,nt
CC(C)NC(=O)N[C@@H]1C=C[C@H](CC(=O)NCc2ccc(Oc3ccccc3)cc2)O[C@H]1CO,0.1,6.5
OC[C@@H]1[C@H](c2ccc(C#CC3(O)CCCC3)cc2)[C@H]2CN(Cc3cccnc3)CCCCN12,2.3,2.6
CN(C)C(=O)C[C@@H]1C=C[C@H](NC(=O)C2CCOCC2)[C@@H](CO)O1,5.1,10.9
COc1ccc(NC(=O)N2CC(=O)N3[C@@H](CO)[C@H](c4ccc(C#CCC5CCCC5)cc4)[C@@H]3C2)cc1,?,nt
C[C@@H]1CCCCO[C@@H](CN(C)Cc2ccncc2)[C@@H](C)CN([C@H](C)CO)C(=O)c2cc(NS(=O)(=O)c3ccccc3)ccc2O1,14.7,11.3
C[C@H](CO)N1C[C@H](C)[C@H](CN(C)C(=O)NC2CCCCC2)Oc2ncc(C#CCN(C)C)cc2C1=O,9.6&13.8,2.9&6.0

# Reprinted from the part before: 2 entries; new compounds follow.
SMILES,Vaccinia inh,Vaccinia inh Venus
C[C@@H]1CCCCO[C@@H](CN(C)Cc2ccncc2)[C@@H](C)CN([C@H](C)CO)C(=O)c2cc(NS(=O)(=O)c3ccccc3)ccc2O1,14.7,11.3
C[C@H](CO)N1C[C@H](C)[C@H](CN(C)C(=O)NC2CCCCC2)Oc2ncc(C#CCN(C)C)cc2C1=O,9.6&13.8,2.9&6.0
O=C(C[C@H]1C=C[C@@H](NC(=O)CN2CCOCC2)[C@@H](CO)O1)NCc1cccc(F)c1,0.7,12.9
O=C(C[C@H]1CC[C@H]2[C@@H](COC[C@@H](O)CN2Cc2cccc(C(F)(F)F)c2)O1)NCc1ccc(Cl)cc1,?,nt
C[C@H](CO)N1C[C@H](C)[C@@H](CN(C)C)Oc2ccc(NS(=O)(=O)c3ccc(Cl)cc3)cc2CC1=O,6.0,2.0
CO[C@@H]1CN(C)C(=O)c2ccc(NC(=O)C3CCCCC3)cc2OC[C@H](C)N(C(=O)c2ccccc2)C[C@@H]1C,15.5,6.8
O=C(Nc1ccc(F)cc1)N[C@@H]1CC[C@@H](CC(=O)N2CCCCC2)O[C@H]1CO,-8.1,-5.3
C[C@@H]1CCCCO[C@@H](CN(C)Cc2ccc3c(c2)OCO3)[C@@H](C)CN([C@H](C)CO)C(=O)c2cc(NC(=O)CCC(F)(F)F)ccc2O1,-0.6,-5.4
COCC#Cc1cnc2c(c1)C(=O)N([C@@H](C)CO)C[C@H](C)[C@@H](CN(C)S(=O)(=O)c1cn(C)cn1)O2,8.9,9.5
C[C@@H]1CN([C@H](C)CO)C(=O)c2cc(NC(=O)C3CC3)ccc2O[C@@H]1CN(C)Cc1ccncc1,13.6,10.5
C[C@H]1CN([C@@H](C)CO)C(=O)c2cc(C#CC3(O)CCCC3)cnc2O[C@@H]1CN(C)C(=O)Cc1ccccc1,2.0,-1.8
C/C=C/c1cnc2c(c1)C(=O)N([C@@H](C)CO)C[C@@H](C)[C@H](CN(C)C(=O)Nc1c(C)noc1C)O2,14.9,22.8
CC(C)NC(=O)N1CCCCN2[C@H](C1)[C@H](c1ccc(C#CC3CC3)cc1)[C@@H]2CO,-6.3,-12.1
O=C(NC[C@H]1CC[C@@H]2[C@@H](CN2S(=O)(=O)c2ccccc2[N+](=O)[O-])O1)C1CC1,3.9,4.3
C[C@H]1CCCCO[C@@H](CN(C)C(=O)Nc2ccccc2)[C@@H](C)CN([C@@H](C)CO)C(=O)c2cc(NC(=O)C3CCCCC3)ccc2O1,-26.2,-26.0
CNC(=O)C[C@H]1CC[C@@H]2[C@@H](COc3ccc(NS(=O)(=O)c4cccc(F)c4)cc3C(=O)N2C)O1,5.5,8.1
C[C@@H]1CCCCO[C@@H](CN(C)C(=O)Nc2ccc3c(c2)OCO3)[C@@H](C)CN([C@@H](C)CO)C(=O)c2cc(NC(=O)Nc3cccc4ccccc34)ccc2O1,-0.1,-5.4

# Compound profiles, from the list above:
# Shown for CO[C@@H]1CN(C)C(=O)c2ccc(NC(=O)C3CCCCC3)cc2OC[C@H](C)N(C(=O)c2ccccc2)C[C@@H]1C → Vaccinia inh: 15.5; Vaccinia inh Venus: 6.8
# Shown for COCC#Cc1cnc2c(c1)C(=O)N([C@@H](C)CO)C[C@H](C)[C@@H](CN(C)S(=O)(=O)c1cn(C)cn1)O2 → Vaccinia inh: 8.9; Vaccinia inh Venus: 9.5

# (cont.)
SMILES,Vaccinia inh,Vaccinia inh Venus
CO[C@@H]1CN(C)C(=O)c2cc(NC(=O)Nc3cc(F)ccc3F)ccc2OC[C@H](C)N(C(=O)c2cnccn2)C[C@H]1C,7.2,4.2
CCCN1C[C@H](C)[C@H](OC)CN(C)C(=O)c2ccc(NC(=O)Nc3cccc(F)c3)cc2OC[C@H]1C,13.2,0.2
C[C@@H]1CN([C@@H](C)CO)C(=O)c2cc(NC(=O)C3CC3)ccc2O[C@@H]1CN(C)C(=O)Nc1ccc(F)cc1,10.4,2.5
C[C@@H]1CN([C@H](C)CO)S(=O)(=O)c2ccc(C3=CCCCC3)cc2O[C@@H]1CN(C)C(=O)Nc1ccc2c(c1)OCO2,?,nt
C[C@@H]1CN([C@H](C)CO)C(=O)c2cc(C#Cc3cccc(F)c3)cnc2O[C@@H]1CN(C)C(=O)C1CCCCC1,?,nt
Cc1ccc(S(=O)(=O)N[C@@H]2CC[C@H](CCn3cc(C(C)C)nn3)O[C@H]2CO)cc1,-7.0,-13.3
CCC(=O)Nc1ccc2c(c1)OC[C@H](C)N(Cc1cccnc1)C[C@@H](C)[C@@H](OC)CN(C)C2=O,-6.4,-5.6
CCS(=O)(=O)NCC[C@H]1CC[C@H](NS(=O)(=O)c2cccc(Cl)c2)[C@@H](CO)O1,6.1,11.6
CNC[C@@H]1Oc2c(NS(=O)(=O)c3cccs3)cccc2C(=O)N([C@H](C)CO)C[C@H]1C,5.2,-0.3
O=C(C1CC1)N1C[C@H]2[C@@H](c3ccccc31)[C@H](CO)N2C(=O)c1ccccn1,4.7,2.1
COc1ccc(NC(=O)N(C)C[C@@H]2Oc3ccc(NC(=O)Nc4c(C)noc4C)cc3CC(=O)N([C@@H](C)CO)C[C@H]2C)cc1,6.6,3.6
CC=Cc1ccc2n(c1=O)C[C@@H]1[C@@H](CO)[C@H](C(=O)NCCCN3CCOCC3)[C@H]2N1Cc1cocn1 (mixture of isomers),3.1,4.2
C[C@@H]1CCCCO[C@@H](CN(C)S(=O)(=O)c2ccc(F)cc2)[C@@H](C)CN([C@@H](C)CO)C(=O)c2cc(NC(=O)Nc3ccc4c(c3)OCO4)ccc2O1,1.8,-3.0
CCNC(=O)[C@H]1[C@H](CO)[C@H]2Cn3c(ccc(-c4ccccc4)c3=O)[C@@H]1N2C(=O)c1ccccn1,15.3,3.8
C[C@H]1CN([C@@H](C)CO)C(=O)Cc2cc(N(C)C)ccc2O[C@@H]1CN(C)C(=O)NC1CCCCC1,10.4,8.8
CN1c2ccc(C3=CCCCC3)cc2[C@@H]2[C@@H](CCN2C(=O)C2CC2)[C@H]1CO,-1.8,3.1
Cc1ccc(S(=O)(=O)Nc2ccc3c(c2)C(=O)N([C@@H](C)CO)C[C@H](C)[C@@H](CN(C)Cc2ccncc2)OCCCC[C@H](C)O3)cc1,-4.1,-4.3
C[C@@H]1CN([C@H](C)CO)C(=O)c2cc(NC(=O)CCC(F)(F)F)ccc2O[C@H]1CN(C)Cc1ccc(-c2ccccc2)cc1,?,nt
Cc1ccc(-c2cnc3c(c2)C(=O)N([C@H](C)CO)C[C@H](C)[C@@H](CN(C)C(=O)c2ccccc2)O3)cc1,-11.8,-2.3
O=C(N[C@H]1C=C[C@@H](CC(=O)N2CCc3ccccc3C2)O[C@H]1CO)C1CC1,8.4,6.6
